Bfl-1 A1 inh = inhibitors of the anti-apoptotic protein A1, read as caspase activation. MEF A1-2A-BIM cells, Caspase-Glo 3/7 luminescence, 3 h; percent of clofoctol response, vehicle zero. caspase activation, % (test concentration not listed). hit rate 0.066% among 330,000;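 active = over half of replicate activation scores above 10%, or exactly half above 10 with the replicate mean above 10; inconclusive = replicate mean below 10 yet half the replicates above 10; inactive = over half of replicates below 10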;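 also: wells of about 30 µL received 50 nL stock; many hits fall short of the cut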
rRNA inh HTS = selective bacterial rRNA inhibition in E. coli. E. coli WT GFP vs humanized-ribosome RFP mutants, fluorescence, 24 h; hits give low values; DMSO median 0, no signal -100. AID 720706. hit rate 1.6% among 350,000. GFP signal change (wild-type ribosome), % (test concentration not listed);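 active = significant combined selectivity score with lowered wild-type GFP, culture density cut under 30%, mutant RFP and density less affected; inactive = any of these conditions unmet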; also: one replicate is shown; some compounds called inactive have numbers as strong as hits
Calb FLC = C. albicans growth modulation with fluconazole; C. albicans CaCi-2 (fluconazole-resistant clinical isolate) + fluconazole, Alamar Blue growth, 48 h; growth inhibition, % (no concentration beside the values); hit rate 0.57% among 300,000; AID 1979;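 active = most replicates above 75%; inconclusive = exactly half above 75%; inactive = most below 75%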;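 also: all wells also contain fluconazole at 8 µg/ml as a sub-toxic cotreatment; 0% = median of DMSO wells and 100% = median of geldanamycin control wells; wells of about 8 µL received 7.5 nL stock; the first replicate is given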
T cruzi inh = T. cruzi replication inhibition | inhibition, % (concentration not given with the values) | AID 1885 | T. cruzi beta-gal in NIH3T3, luminescence, 90 h | hit rate 1.4% among 300,000;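 active = mean inhibition across valid replicates above about 55%, limit read from the data; inconclusive = mean below that limit but half or more replicates reach it; inactive = mean below it, under half of replicates reach it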;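 also: signal also drops with host cell toxicity which is not excluded here; 0% = plate median of DMSO wells and 100% = zero luminescence signal; higher percent means less beta-gal luminescence so fewer parasites; stock transfer was 50 nL into about 50 µL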
Beta2AR agonist = activates human beta-2 adrenergic receptor causing internalization. P07550. hit rate 0.43% among 340,000. response, % (no concentration beside the values). Am2.2-beta2AR cells, FAP receptor internalization, flow cytometry; reference of the scale not given here. AID 504454;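 active = response above a set limit, near 3 SD of response in nonfluorescent compounds, cut at about 42% in these data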;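 also: stock transfer was 100 nL into about 11 µL; a reference agonist was the positive control; negative values mostly stem from fluorescent compounds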
Beta apoptosis = beta cell apoptosis inhibition; INS-1E cytokine-induced death, ATP luminescence, 48 h; percent of positive-control rescue, neutral wells zero; hit rate 0.8% among 300,000; AID 435005; protection from apoptosis, % (no concentration beside the values);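 active = all replicates at 75% or more, or half of them and the mean; inconclusive = half reach 75% but not the mean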;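 also: 0% = cytokine-treated negative control wells and 100% = positive control rescue; higher means more ATP so stronger rescue from cytokine killing; wells of about 40 µL received 100 nL stock; the first replicate is given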
LANA-H2B inh = blocks KSHV LANA binding to histone H2A/H2B; cell-free LANA-H2A/H2B peptide, fluorescence polarization; inhibition, % (no concentration beside the values); hit rate 0.6% among 320,000; in the data active = inhibition mostly above about 10%, no sharp cut-off; inactive = mostly below about 6.7%;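 also: stock transfer was 7.5 nL into about 10 µL; 0% = median of vehicle wells and 100% = median of positive control wells; one replicate is shown; the record names a cut of 25% in any replicate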
Target sequence (Q9QR71 whole entry, looked up): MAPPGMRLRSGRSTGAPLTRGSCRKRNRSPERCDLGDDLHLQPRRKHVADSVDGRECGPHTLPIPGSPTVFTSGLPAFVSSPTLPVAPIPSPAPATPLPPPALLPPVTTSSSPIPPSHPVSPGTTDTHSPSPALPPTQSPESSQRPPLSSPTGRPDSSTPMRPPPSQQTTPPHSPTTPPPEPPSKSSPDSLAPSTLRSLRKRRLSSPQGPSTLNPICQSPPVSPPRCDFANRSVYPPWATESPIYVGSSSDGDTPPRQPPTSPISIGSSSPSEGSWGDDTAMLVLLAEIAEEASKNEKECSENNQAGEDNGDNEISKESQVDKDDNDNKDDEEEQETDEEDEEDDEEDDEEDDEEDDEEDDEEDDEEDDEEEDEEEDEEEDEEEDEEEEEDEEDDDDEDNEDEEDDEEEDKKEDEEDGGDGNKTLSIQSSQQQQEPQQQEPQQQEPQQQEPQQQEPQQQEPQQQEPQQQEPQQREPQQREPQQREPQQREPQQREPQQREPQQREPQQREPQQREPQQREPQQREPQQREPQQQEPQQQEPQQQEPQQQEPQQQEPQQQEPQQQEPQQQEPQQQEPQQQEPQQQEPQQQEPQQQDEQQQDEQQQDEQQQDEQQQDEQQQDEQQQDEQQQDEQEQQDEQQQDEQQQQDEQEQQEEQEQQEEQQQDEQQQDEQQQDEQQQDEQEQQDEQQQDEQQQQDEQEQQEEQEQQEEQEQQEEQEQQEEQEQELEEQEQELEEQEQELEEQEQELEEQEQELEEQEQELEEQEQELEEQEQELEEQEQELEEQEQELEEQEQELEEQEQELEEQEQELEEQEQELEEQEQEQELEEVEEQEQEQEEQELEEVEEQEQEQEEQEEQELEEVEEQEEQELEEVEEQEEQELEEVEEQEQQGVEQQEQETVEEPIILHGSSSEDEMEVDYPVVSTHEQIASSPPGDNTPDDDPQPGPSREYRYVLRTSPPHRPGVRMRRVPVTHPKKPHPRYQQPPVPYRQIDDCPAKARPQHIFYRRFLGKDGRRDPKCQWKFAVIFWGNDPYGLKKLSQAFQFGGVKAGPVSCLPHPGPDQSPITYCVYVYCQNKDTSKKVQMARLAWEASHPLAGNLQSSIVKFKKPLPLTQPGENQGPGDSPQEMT
ALR inh = human ALR oxidase inhibition via reduced H2O2. P55789. purified ALR, DTT oxidation, H2O2 HRP-luminol luminescence. inhibition, % (concentration not given with the values). hit rate 3.8% among 290,000. AID 485317;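 active = mean and each replicate at 75% or more; inconclusive = only one of the two met; inactive = neither met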;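 also: stock transfer was 7.5 nL into about 7.5 µL; 0% = neutral wells and 100% = wells with inactivated enzyme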
rRNA inh HTS OD600 = further read-out of rRNA inh HTS, marked with its call; OD600 change, %; measured here: OD600 growth;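 optical density of the mix in the first replicate; 0 = DMSO median and -100 = no signal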
rRNA inh HTS RFP = second read-out of rRNA inh HTS, no call of its own (marks repeat the call); RFP signal change, %; measured here: RFP humanized mutant strains;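 first replicate; 0 = DMSO median and -100 = no signal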
An asterisk follows results filed as active; ? = inconclusive; / = no result given. A portion of the library, so the mix of outcomes need not match the whole.

SMILES	Bfl-1 A1 inh	rRNA inh HTS	rRNA inh HTS OD600	rRNA inh HTS RFP	Calb FLC	T cruzi inh	Beta2AR agonist	Beta apoptosis	LANA-H2B inh	ALR inh
CN(C(=O)n1cnc2ccccc21)c1ccccc1	0.4	/	/	/	1	-5	-67	-6	-4.4	/
CCc1ccc(OCC(=O)Nc2nnc(-c3ccco3)s2)cc1	0.6	2	3	0.9	2	-11	4	-2	-2.2	18
O=C(O)CN1C(=O)NC2(CCc3ccccc32)C1=O (stereo unspecified)	0.3	9	11	-0.2	0	3	4	0	-0.1	-5
CCOC(=O)c1[nH]c(C)c(C(=O)N2CCN(c3ccc(F)cc3)CC2)c1C	0.1	/	/	/	-15	-5	0	0	-3.2	90*
O=C(NCc1ccccc1CN1CCCC1)C1CCN(S(=O)(=O)c2ccc(F)c(F)c2)CC1	0.0	0	-5	-0.2	/	/	-6	-2	1.8	-2
O=C(CC1SCCNC1=O)Nc1ccc(Cl)c(Cl)c1 (stereo unspecified)	0.0	-21	-2	12	33	0	9	0	5.5	-4
COc1ccc(NC(=O)CCSCCC(=O)Nc2ccc(OC)cc2OC)c(OC)c1	-0.4	/	/	/	5	6	-4	1	-5.3	97*
COc1ccc(CCNC(=O)c2cn3ccc(C)cc3n2)cc1OC	0.4	-10	-10	-7.4	-7	3	-12	-3	7.0	-4
COC(=O)c1ccc(Nc2nc3ccc(C)cc3n3cnnc23)cc1	-0.2	19	24	0.9	-6	13	-15	-11	1.4	-9
C=CCNc1nc(N)c(C(=O)c2ccc3c(c2)OCO3)s1	-1.3	/	/	/	/	/	16	-4	-2.6	2
CCCn1c(N)c(N(CCOC)C(=O)c2ccc([N+](=O)[O-])cc2Cl)c(=O)[nH]c1=O	0.0	3	4	-2.3	1	-9	-1	/	-11	-5
CCC(C)(C)NC(=O)C(c1ccc(C)o1)N(Cc1cccs1)C(=O)Cn1nnc2ccccc21 (stereo unspecified)	1.5	/	/	/	14	32	-5	8	-3.5	-17
S=C(NCc1cccnc1)Nc1ccc(Cl)c(Cl)c1	0.2	-28	-42	-13	?	51	4	-11	-1.6	3
C=Cc1ccc(CSc2cc(C)nc3nc(C)nn23)cc1	1.0	-6	-3	1.0	0	-10	-24	-6	-0.4	/
CCOC(=O)c1oc2ccccc2c1COC(=O)CNC(=O)c1ccccc1OC	-0.5	-24	-37	-1.0	-8	25	2	/	-3.4	-1

The closing 7 records of the part above open the next one:
SMILES	Bfl-1 A1 inh	rRNA inh HTS	rRNA inh HTS OD600	rRNA inh HTS RFP	Calb FLC	T cruzi inh	Beta2AR agonist	Beta apoptosis	LANA-H2B inh	ALR inh
COC(=O)c1ccc(Nc2nc3ccc(C)cc3n3cnnc23)cc1	-0.2	19	24	0.9	-6	13	-15	-11	1.4	-9
C=CCNc1nc(N)c(C(=O)c2ccc3c(c2)OCO3)s1	-1.3	/	/	/	/	/	16	-4	-2.6	2
CCCn1c(N)c(N(CCOC)C(=O)c2ccc([N+](=O)[O-])cc2Cl)c(=O)[nH]c1=O	0.0	3	4	-2.3	1	-9	-1	/	-11	-5
CCC(C)(C)NC(=O)C(c1ccc(C)o1)N(Cc1cccs1)C(=O)Cn1nnc2ccccc21 (stereo unspecified)	1.5	/	/	/	14	32	-5	8	-3.5	-17
S=C(NCc1cccnc1)Nc1ccc(Cl)c(Cl)c1	0.2	-28	-42	-13	?	51	4	-11	-1.6	3
C=Cc1ccc(CSc2cc(C)nc3nc(C)nn23)cc1	1.0	-6	-3	1.0	0	-10	-24	-6	-0.4	/
CCOC(=O)c1oc2ccccc2c1COC(=O)CNC(=O)c1ccccc1OC	-0.5	-24	-37	-1.0	-8	25	2	/	-3.4	-1
COc1ccccc1CNS(=O)(=O)c1ccc2c(c1)oc(=O)n2C	1.1	1	-2	0.4	1	-10	-6	-5	1.9	1
COc1cc(C2C(C(=O)C(C)(C)C)=C(O)C(=O)N2Cc2ccccc2)ccc1O (stereo unspecified)	0.6	4	10	-1.6	11	-5	2	/	-5.5	-13
CC1CCCC(C)N1C(=O)c1ccc(S(=O)(=O)N2CCCC2)cc1 (stereo unspecified)	0.0	2	15	-0.2	/	/	-5	-1	4.4	-5
Oc1ccc(Br)cc1-c1cc(-c2ccccc2F)[nH]n1	-0.4	/	/	/	1	-5	4	8	-7.1	-8
Cc1ccccc1NC(=O)COC(=O)c1ccc(CSc2ccc(Cl)cc2)cc1	0.5	0	4	-2.0	-6	0	2	1	/	/
COc1cccc(NC(=O)CN2CCN(S(=O)(=O)c3ccc(F)cc3)CC2)c1	0.4	-2	-2	-2.6	?	8	-5	-6	-9.4	-3
Cc1ccc(S(=O)(=O)N2CCOCC2)cc1C(=O)OCC(=O)c1ccc[nH]1	0.2	3	0	3.6	/	/	-4	-2	-1.9	/
CCc1nc(C)cn1S(=O)(=O)c1cc(OC)c(C)cc1C	-0.1	/	/	/	?	-18	-3	-1	1.9	-7
COc1ccccc1CNC(=O)CNC(=O)[C@@H]1Cc2ccccc2CN1	-0.4	11	17	-2.1	-4	3	1	-2	-4.0	1
COc1ccc(OC)c(S(=O)(=O)N2CCC(C(=O)N(C)Cc3ccccc3)CC2)c1	0.3	-4	-13	-8.8	0	9	-9	-4	2.1	1
CCOCc1nnc(NC(=O)C2CC(=O)N(CCc3ccc(F)cc3)C2)s1 (stereo unspecified)	0.4	7	-1	0.8	3	-7	0	-10	-2.2	/
COc1ccc(OC)c(NC(=S)Nc2ccccc2)c1	0.4	-4	-7	-2.3	-1	9	0	/	-2.5	/
CCCNC(=O)NC(=O)COC(=O)c1ccc(OC)c(S(=O)(=O)N2CCCc3ccccc32)c1	-1.1	/	/	/	10	2	2	-1	5.6	-5
Cc1ccc(C(=O)NCC(=O)OC(C)C(=O)NCCC2=CCCCC2)cc1C (stereo unspecified)	0.4	/	/	/	-4	1	8	-9	-1.1	-8
CCCc1cc(C(=O)Nc2cccnc2Cl)no1	-1.6	/	/	/	0	-9	1	-9	-5.8	-11
NC(=O)c1ccccc1NC(=O)c1ccccc1S(=O)(=O)c1ccccc1[N+](=O)[O-]	-0.6	/	/	/	-1	5	3	-6	-1.2	-5
O=C(Nc1ccccc1)OC1C2CCC1C(N1CCCCC1)CC2 (stereo unspecified)	-0.5	/	/	/	0	15	0	-6	-4.1	-4
O=C(NCc1ccco1)c1ccc(Cl)nc1	-0.2	3	5	2.1	2	-16	-7	-9	-2.3	/
O=C(CCCn1c(=S)[nH]c2cc3c(cc2c1=O)OCO3)NCCc1ccccc1Cl	-1.7	10	9	0.5	-35	14	-8	5	1.4	-6
O=C(NCc1cccnc1)/C(=C\c1ccc(-c2ccc(Br)cc2)o1)S(=O)(=O)c1ccccc1	0.3	-44	-40	-7.5	3	30	35	107*	0.5	7
Cc1ccc2c(c1)C(c1ccc([N+](=O)[O-])cc1)=NNC(c1ccc(Br)cc1)=N2	-1.4	/	/	/	12	17	-11	11	-2.0	18
COc1ccccc1C(=O)NCCNc1nc2cc(C)cc(C)c2cc1C#N	0.4	2	3	0.2	10	3	0	1	-2.7	53
COc1cc(C)c(Cl)cc1S(=O)(=O)NCc1ccco1	-0.4	/	/	/	1	10	-3	0	-1.7	4
CC(C)CCn1c(CN2CCN(c3cccc(Cl)c3)CC2)nc2c1c(=O)n(C)c(=O)n2C	0.3	0	1	3.9	-7	4	4	-8	-2.1	-8
O=C(CCNC(=O)c1ccccc1)NCC1CCCCC1	0.6	16	6	1.3	-8	-9	5	-1	0.4	-7
CC(=O)c1ccc(OC(=O)CCNC(=O)c2ccccc2)cc1	0.5	3	2	-2.5	/	/	4	-4	-4.4	51
CC1CN(C(=O)Nc2ccc3snnc3c2)c2ccccc21 (stereo unspecified)	0.0	0	12	4.2	-16	3	-4	9	0.1	94*
CCC1CCCCN1CCCNC(=O)Cn1nc(C)n2nc(-c3ccccc3)cc2c1=O (stereo unspecified)	0.9	-7	1	-5.5	-4	9	-3	0	1.8	-10
O=c1[nH]c2ccccc2cc1-c1nnn(-c2ccc(Cl)c(Cl)c2)n1	1.0	-1	-3	-1.7	9	-7	5	-3	-0.1	11
COc1ccc(Cl)cc1Nc1nc(C)nc2c1oc1ccccc12	0.8	5	10	2.4	-6	-13	1	2	-2.8	-10
CC(C)(C)c1cc(=O)[nH]c(SCc2ccccc2Cl)n1	0.0	-25	-29	-1.6	-2	-4	0	3	3.0	-5
O=C(NC1CCCCCC1)c1c2c(nc3ccccc13)CCN(Cc1ccccc1)C2	-0.6	/	/	/	7	31	5	8	1.0	-3
O=C(C1CCCO1)N1CCN(S(=O)(=O)c2ccc(F)cc2)CC1 (stereo unspecified)	0.2	8	12	-2.0	8	-9	-1	/	0.4	/
CCOc1c2ccc(C(=O)NCc3cc(C(F)(F)F)cc(C(F)(F)F)c3)cc2nn1CCOC	-0.2	4	-1	-11	0	21	-3	-8	-4.9	6
O=C(CCc1nc2ccccc2[nH]c1=O)OCc1ccc(S(=O)(=O)N2CCOCC2)cc1	-0.2	9	1	-1.4	13	-1	-2	-2	-1.4	10
COc1ccc(C(=O)NCC(=O)N2CC=C(c3ccccc3)CC2)cc1OC	-1.0	-14	-11	1.7	/	/	2	1	-7.3	/
CCn1c(NCc2cccc(OC)c2OC)nc2ccccc21	-0.5	/	/	/	-2	-5	-4	0	3.2	9
O=C(NC1CC1)C1=C[C@H](C2CCCCC2)C[C@H](OCCCCO)O1	0.0	-1	3	-3.7	-5	31	-21	-5	1.5	/
CCCCNC(=O)c1cn(CC)c2ccc(S(=O)(=O)N3CCCC3)cc2c1=O	0.3	-4	3	-0.3	-9	6	0	4	0.8	-1
CCOC(=O)N/N=C/c1cn(Cc2ccc(F)cc2)c2ccccc12	0.5	-3	-16	0.1	-6	20	-3	-3	-2.6	-4
CCN1CCN(C(=O)/C=C/c2ccc([N+](=O)[O-])cc2)CC1	0.5	/	/	/	-3	4	-9	0	-2.6	/
O=C(O)COCC(=O)N1CCN(C(c2ccccc2)c2ccccc2)CC1	1.3	19	5	-2.6	-5	5	-4	2	-4.1	-10
COc1ccc(NC(=O)CN(c2ccccc2F)S(=O)(=O)c2ccc(C)cc2)cc1	1.0	3	12	0.4	-7	0	2	-2	-1.3	4
CCOC(=O)c1cc(-c2ccc(C)cc2)nc2nc(SC)[nH]c(=O)c12	0.3	/	/	/	3	5	-16	12	-3.4	5
